# ALR inh: inhibitors of human ALR sulfhydryl oxidase, primary screen, biochemical, H2O2 detection, HRP-luminol luminescence, single point. FAD-linked sulfhydryl oxidase ALR (Homo sapiens), P55789. purified ALR, DTT oxidation. inhibition, % (no concentration beside the values). hit rate 3.8% among 290,000;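 active = mean and each replicate at 75% or more; inconclusive = only one of the two met; inactive = neither met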;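 note: stock transfer was 7.5 nL into about 7.5 µL; 0% = neutral wells and 100% = wells with inactivated enzyme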
# Target sequence (P55789 whole entry, looked up): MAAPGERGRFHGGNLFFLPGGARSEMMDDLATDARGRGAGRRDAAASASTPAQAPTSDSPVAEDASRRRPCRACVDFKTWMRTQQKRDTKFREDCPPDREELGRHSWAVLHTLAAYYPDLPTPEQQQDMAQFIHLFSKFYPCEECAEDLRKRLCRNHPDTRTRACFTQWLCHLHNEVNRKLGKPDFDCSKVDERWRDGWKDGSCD
# Ecoli rRNA inh: reduced GFP signal of wild-type E. coli, primary screen, bacterial rRNA inhibitor project, GFP/RFP fluorescence, OD600, single point. E. coli WT GFP vs humanized-ribosome RFP mutants, 24 h; hits give low values; DMSO median 0, no signal -100. GFP signal change (wild-type ribosome), % (test concentration not listed). hit rate 1.6% among 350,000. AID 720706, 2013;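 active = significant combined selectivity score with lowered wild-type GFP, culture density cut under 30%, mutant RFP and density less affected; inactive = any of these conditions unmet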; note: one replicate is shown; some compounds called inactive have numbers as strong as hits
# HNF4A DNA FP: change in binding of human HNF4A to DNA, primary screen, biochemical, fluorescence polarization, FITC-DNA; activity change, % at 10 µM; Hepatocyte nuclear factor 4-alpha (Homo sapiens), P41235; AID 1224865, 2016; 1 h; hit rate 0.3% among 360,000; in the data active = activity change above about 30%, passing the limit was not always enough;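 note: controls were the assay level and a saturating level of protein; the project sought stronger binding though the title names inhibitors; some compounds called inactive have numbers as strong as hits; positive values seem to mean higher polarization but the record does not say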
# AF4-AF9 inh: inhibitors of AF4 peptide binding to AF9, primary screen, biochemical, AlphaScreen, biotin-AF4 peptide, FLAG-AF9, single point | inhibition, % at 10 µM | hit rate 0.47% among 350,000 | Protein AF-9 (Homo sapiens), P42568;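 active = every replicate reaching a set inhibition limit, whatever the replicate mean, cut at about 25% in these data; inconclusive = mean inhibition reaches that limit but some replicates miss it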;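 note: 0% = plate neutral control median and 100% = total signal loss; the record names both 10 and 1 µM as test concentration; the first replicate is given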
# Target sequence (P42568 whole entry, looked up): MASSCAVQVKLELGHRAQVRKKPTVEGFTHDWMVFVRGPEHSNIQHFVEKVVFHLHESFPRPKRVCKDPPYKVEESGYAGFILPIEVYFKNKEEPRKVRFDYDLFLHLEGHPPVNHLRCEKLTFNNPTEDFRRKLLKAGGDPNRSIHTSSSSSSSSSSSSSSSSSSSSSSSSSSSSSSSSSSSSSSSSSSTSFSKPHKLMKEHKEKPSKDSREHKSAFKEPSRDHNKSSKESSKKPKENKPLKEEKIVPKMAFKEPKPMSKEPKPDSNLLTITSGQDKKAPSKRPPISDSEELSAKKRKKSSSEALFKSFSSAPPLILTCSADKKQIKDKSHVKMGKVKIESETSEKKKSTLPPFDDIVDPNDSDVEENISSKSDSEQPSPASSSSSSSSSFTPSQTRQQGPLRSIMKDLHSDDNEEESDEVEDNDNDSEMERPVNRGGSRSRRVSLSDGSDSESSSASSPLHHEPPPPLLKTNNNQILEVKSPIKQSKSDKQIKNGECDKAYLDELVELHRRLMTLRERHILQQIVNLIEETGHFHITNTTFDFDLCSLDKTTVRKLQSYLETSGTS
# FGF22 binding: binders of human FGF22 protein, primary screen, FGF22 synaptogenesis inhibitor project, biophysical, thermal shift, single point | calls only at 9.99 µM | AID 651658, 2012 | recombinant FGF22 thermal shift, SYPRO orange fluorescence; percent of sucrose octasulfate shift, DMSO zero | hit rate 1.5% among 340,000 | Fibroblast growth factor 22 (Homo sapiens), Q9HCT0;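 active = melting point raised past a set limit in the mean and every replicate; inconclusive = no clear call; three in four hits are not shown here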
# Target sequence (Q9HCT0 whole entry, looked up): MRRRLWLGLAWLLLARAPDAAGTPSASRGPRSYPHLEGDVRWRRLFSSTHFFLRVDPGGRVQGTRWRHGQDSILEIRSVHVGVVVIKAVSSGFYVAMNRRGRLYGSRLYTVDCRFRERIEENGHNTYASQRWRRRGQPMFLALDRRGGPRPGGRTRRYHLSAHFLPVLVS
# Vif TR-FRET: inhibitors of Vif binding to APOBEC3G peptide, primary screen, biochemical, TR-FRET, GST-Vif 1-94, biotin-A3G peptide, dose response retest (AID 1117319). Virion infectivity factor (Human immunodeficiency virus type 1 group M subtype B (isolate …. TR-FRET GST-Vif / biotin-A3G peptide binding; higher % means a stronger effect; test concentration not given here; strong numbers were not always called active. inhibition, %; hits with a dose series show IC50 in µM. hit rate 0.57% among 260,000;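 active = above the screen mean plus three standard deviations and confirmed in dose response; inconclusive = results disagree or hit not tested in dose response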;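 note: Vif residues 1-94 fused to GST binding biotinylated APOBEC3G peptide 110-148; 0% = full assay without inhibitor and 100% = GST in place of GST-Vif; retest series ran down from 100 µM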
# E coli growth: E. coli growth inhibition, primary screen, OD600; Escherichia coli growth, 23 h; hits give low values; OD600 absorbance (no concentration beside the values); hit rate 0.21% among 330,000; AID 1053175, 2014;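 active = OD600 absorbance below the run mean of sample wells minus 3.6 SD, in any replicate, cut at about 0.56 in these data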;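 note: stock transfer was 300 nL into about 60 µL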
# Ecoli rRNA inh OD600: recorded beside Ecoli rRNA inh, whose call it bears; OD600 change, %; measured here: OD600 growth;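 optical density of the mix in the first replicate; 0 = DMSO median and -100 = no signal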
# Ecoli rRNA inh RFP: also measured in Ecoli rRNA inh; calls as there; RFP signal change, %; measured here: RFP humanized mutant strains;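 first replicate; 0 = DMSO median and -100 = no signal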
# Numbers without * were called inactive; i = inactive; ? = inconclusive; / = no result given; & = joins results of further samples. Only part of the results is shown (hit frequency here may not be typical).
No.	Structure	ALR inh	Ecoli rRNA inh	Ecoli rRNA inh OD600	Ecoli rRNA inh RFP	HNF4A DNA FP	AF4-AF9 inh	FGF22 binding	Vif TR-FRET	E coli growth
1	CCNC(=O)CSC1=N/C(=C\c2ccc(O)c(OCC)c2)C(=O)N1c1ccc(OC(F)F)cc1	-8	10	25	4.3	90*	0.3	i	/	0.75
2	COc1ccc(-n2ncc(C(C)NS(=O)(=O)c3ccc(C(C)=O)cc3)c2C)cc1 (centres undefined)	-7	-2	-4	-0.7	-2.8	0.2	i	/	0.65
3	Cc1noc(C)c1S(=O)(=O)Nc1cccc2c1O[C@@H](CN(C)Cc1ccc(Cl)c(Cl)c1)[C@@H](C)CN([C@H](C)CO)C2=O	/	-2	3	0.6	/	2.5	i	/	/
4	CCN(C(=O)COC(=O)c1ccc[nH]c1=O)c1cccc2ccccc12	/	3	-6	-0.8	4.2	-0.8	i	-11%	0.71
5	O=C(NCCCO)c1c(O)c2cccc3c2n(c1=O)CCC3	/	-14	-18	3.1	2.5	-1.7	i	-8%	0.67
6	O=C1CCCN1C(=O)CSc1ncnc2sccc12	/	8	-1	-3.0	-2.0	-2.4	/	3%	0.69
7	CCn1c(CC(=O)Nc2ccccc2F)nnc1SCC(=O)Nc1nnc(C)s1	/	7	10	-1.1	3.1	0.1	i	/	0.71
8	Cc1cc(C)n2nc(C(=O)OCC(=O)Nc3ccc4c(c3)OCCO4)nc2n1	/	15	14	1.8	-1.3	-0.5	i	3%	0.69
9	COc1cccc(NC(=O)CN(C)C(=O)c2cc(-c3ccc(F)cc3)nc3ccccc23)c1	1	-6	-29	14	7.6	1.3	i	-3%	0.71
10	COc1ccc(Cc2nnc(NC(=O)CS(=O)(=O)Cc3ccccc3)s2)cc1	-4	1	-1	4.8	0.5	1.6	i	/	0.75
11	O=C(Nc1ccc(OC(F)(F)F)cc1)Nc1cccnc1	-9	-12	-12	-1.5	-0.4	-4.9	i	-9%	0.58
12	C[C@H](CO)N1C[C@H](C)[C@@H](CN(C)S(=O)(=O)c2cn(C)cn2)Oc2ccc(NC(=O)CCCCCC(=O)Nc3ccccc3N)cc2CC1=O	/	2	5	0.0	/	-0.2	i	/	/
13	CN1CCN(c2ccc(NC(=O)c3cccc(S(=O)(=O)N4CCCC4)c3)cc2)CC1	-6	/	/	/	3.2	4.6	i	-1%	0.64
14	O=C(NCc1cccnc1)c1ccccc1-c1nc(-c2ccccc2)no1	-10	1	0	0.2	7.3	0.9	i	-4%	0.67
15	O=C(C[C@H]1CC[C@@H]2[C@H](COC[C@H](O)CN2S(=O)(=O)c2ccccc2)O1)N1CCc2ccccc2C1	/	-9	-19	-2.5	/	0.4	i	/	/
16	O=C(Oc1oc(-c2ccco2)nc1C=Nc1ccccc1)c1ccco1	6	/	/	/	-2.7	/	/	6%	0.8
17	CC(=O)Nc1ccc(Cc2nc3ccccc3[nH]2)cc1	/	11	5	4.2	1.5	-0.7	/	/	0.71
18	N#C[C@H]1[C@@H](c2ccccc2)[C@H](CO)N1C(=O)c1cccnc1	/	5	7	-2.3	/	-1.2	i	/	/
19	CCCC(=O)Nc1ccc2c(c1)OC[C@@H](C)N(Cc1ccc(-c3ccccn3)cc1)C[C@H](C)[C@@H](OC)CN(C)C2=O	/	-2	-10	4.9	/	-4.2	i	/	/
20	CC(=O)c1c(C)[nH]c(C(=O)COC(=O)c2cc(S(=O)(=O)N(C)c3ccccc3)ccc2Cl)c1C	/	-28*	-22*	-9.8*	0.8	-3.5	i	-2%	0.7
21	COC(=O)C(Cc1ccccc1)NC(=O)CNC(=O)c1ccccc1OC (centres undefined)	/	3	3	2.0	-4.6	-6.0	i	-3%	0.68
22	Cc1ccc(C(=O)N2CCCC(CCC(=O)N3CCN(c4ccccn4)CC3)C2)cc1 (centres undefined)	-4	-3	-12	2.2	0.2	0.8	i	/	0.69
23	c1ccc(-n2nnnc2NCCCN2CCOCC2)cc1	/	/	/	/	-2.1	/	/	26%	0.82
24	C[C@@H]1CCCCO[C@@H](CN(C)C(=O)Nc2cccc3ccccc23)[C@H](C)CN([C@H](C)CO)C(=O)c2cc(NS(C)(=O)=O)ccc2O1	/	3	-15	-1.9	/	5.7	i	/	/
25	O=C(CN1CCN(Cc2cccc(C(F)(F)F)c2)CC1)NCC(=O)Nc1ccc(F)c(F)c1F	/	14	9	0.3	-1.0	1.6	i	/	0.68
26	CCOC(=O)N1CCN(C(=O)COC(=O)Cc2ccc(OC)cc2)CC1	/	5	5	0.2	-3.8	-0.2	i	-4%	0.7
27	COc1ccc(CCNc2nc(-c3ccco3)cc(C(F)(F)F)n2)cc1OC	53	/	/	/	-0.5	/	/	7%	0.73
28	Nc1nonc1C(=O)NCCNC(=O)c1ccc(Cl)c(Cl)c1	-4	/	/	/	-1.0	2.8	i	-7%	0.64
29	Cc1noc(C)c1CSCC(=O)Nc1cc(S(=O)(=O)N2CCOCC2)ccc1OC(C)C	-8	-1	-1	-0.8	1.4	0.2	i	1%	0.66
30	Cc1ccc(Nc2cc(=O)[nH]c(=O)[nH]2)c(C)c1	-93	/	/	/	-2.4	/	/	18%	0.74
31	COCCn1nnnc1C(CC(C)C)N1CCN(C(=O)c2ccco2)CC1 (centres undefined)	/	/	/	/	0.4	/	/	-4%&23%	0.76
32	COc1ccc(Cl)cc1NC(=O)Cn1cccc1	1	3	-6	0.7	-2.6	4.8	i	17%	0.68
33	Cn1cccc1Cc1nnc(SCC(=O)NCc2ccccc2Cl)n1-c1ccc(F)cc1	33	2	1	1.4	2.0	5.8	/	4%&-4%	0.73
34	Cc1cc(C(=O)N2CCC2(C)C(=O)NS(=O)(=O)c2ccccc2Cl)nn1C (centres undefined)	/	7	16	14	2.8	-2.2	i	/	/
35	CC(C)CC#Cc1ccc2c(c1)O[C@@H](CN(C)S(C)(=O)=O)[C@H](C)CN([C@H](C)CO)S2(=O)=O	/	-4	-7	5.5	/	5.0	i	/	/
36	Cc1oc(-c2ccc(Cl)cc2)nc1CN1CCCC(C(=O)NCCCN2CCCC2=O)C1 (centres undefined)	4	-1	4	3.6	-2.2	2.5	i	7%	0.73
37	CCSc1nnc(COc2ccccc2)n1CC	-1	-1	-1	-2.0	-0.7	-6.4	i	8%	0.65
38	CCOCCN1CCN(C(=O)CN2CCCC2=O)CC1	-1	/	/	/	5.8	/	/	/	0.65
39	Cc1cccc(NC(=O)CN2C(=O)N/C(=C/c3ccc(C)s3)C2=O)c1	11	/	/	/	60*	/	/	/	0.7
40	COc1ccc(CN2CCC(n3nccc3NC(=O)CCCc3ccccc3)CC2)cc1C	-2	-15	-16	-2.1	2.0	3.7	i	/	0.65
41	COc1cccc(NC(=O)N2CCCC2C(=O)NC2CCCCC2)c1 (centres undefined)	-1	5	9	0.4	4.3	-6.9	/	/	0.68
42	CCc1nc2ccc(C(=O)NCCCn3ccnc3)cn2c1N(CC)Cc1cccc(Br)c1	/	-37	-63	-12	-0.4	-25	i	/	/
43	Cc1cc(C)c(S(=O)(=O)N2CCN(c3ccccn3)CC2)c(C)c1	/	-6	-45	3.3	-4.0	0.8	i	-9%	0.71
44	Cc1cc(C)c(OCCN(C)Cc2ccccc2)c(Br)c1	-1	-23*	-7.4*	2.0*	-0.1	1.6	i	/	0.62
45	O=S(=O)(c1ccccc1)c1nc(-c2ccccc2Cl)oc1NCCCN1CCOCC1	7	-15	-17	1.6	0.3	-19	i	-1%	0.69
46	O=C(NNC(=S)NC(=O)c1cccs1)c1cccnc1	-6	-34	-44	-12	-2.5	-3.0	i	?	0.59
47	CC(=NC(C)C)C1=C(O)C(C)OC1=O (centres undefined)	/	/	/	/	2.6	/	/	26%	0.74
48	CCN(c1ccccc1)S(=O)(=O)c1cccc(C(=O)OCC(=O)c2c(N)n(C)c(=O)n(C)c2=O)c1	/	-19	-17	4.1	2.8	5.5	i	/	0.7
49	Cc1c(C#N)c2ncn(Cc3ccccc3)c(=O)c2n1-c1ccccc1	/	/	/	/	-2.4	/	/	1%	0.79
50	Cc1ccc(S(=O)(=O)N(C)C[C@H]2Oc3c(NS(=O)(=O)c4cccs4)cccc3C(=O)N([C@H](C)CO)C[C@H]2C)cc1	/	-3	-8	1.7	/	-0.5	i	/	/
51	CCOc1ccc(-c2nnc(Nc3ccc(OC)c(C(=O)N4CCCCC4)c3)c3ccccc23)cc1	/	-29	-26	0.3	-2.5	4.8	i	/	0.7
52	CCN(CC)C(=O)Cn1cnc2sc(C)c(S(=O)(=O)N3CCC(C)CC3)c2c1=O	/	1	2	-3.6	-1.1	2.1	i	/	0.69
53	O=C1CC(N2CCN(Cc3ccc4c(c3)OCO4)CC2)C(=O)N1c1cccc(Cl)c1 (centres undefined)	-3	/	/	/	1.7	/	/	0%	0.67
54	COc1cccc(CN(C)C[C@@H]2OCc3ccccc3-c3c(n(C)c4ccccc34)C(=O)N([C@H](C)CO)C[C@H]2C)c1	/	-4	-26	25	/	15	i	/	/
55	O=C(N=NC(=O)c1ccco1)c1ccc2c(O)n(N3C(=O)c4ccccc4C3=O)c(O)c2c1	-7	/	/	/	7.4	/	/	4%	0.69

# Grouped by structure: those above containing a thiophene ring, fused or not.
No.	Structure	ALR inh	Ecoli rRNA inh	Ecoli rRNA inh OD600	Ecoli rRNA inh RFP	HNF4A DNA FP	AF4-AF9 inh	FGF22 binding	Vif TR-FRET	E coli growth
6	O=C1CCCN1C(=O)CSc1ncnc2sccc12	/	8	-1	-3.0	-2.0	-2.4	/	3%	0.69
39	Cc1cccc(NC(=O)CN2C(=O)N/C(=C/c3ccc(C)s3)C2=O)c1	11	/	/	/	60*	/	/	/	0.7
46	O=C(NNC(=S)NC(=O)c1cccs1)c1cccnc1	-6	-34	-44	-12	-2.5	-3.0	i	?	0.59
50	Cc1ccc(S(=O)(=O)N(C)C[C@H]2Oc3c(NS(=O)(=O)c4cccs4)cccc3C(=O)N([C@H](C)CO)C[C@H]2C)cc1	/	-3	-8	1.7	/	-0.5	i	/	/
52	CCN(CC)C(=O)Cn1cnc2sc(C)c(S(=O)(=O)N3CCC(C)CC3)c2c1=O	/	1	2	-3.6	-1.1	2.1	i	/	0.69

# Structures above containing bromine:
No.	Structure	ALR inh	Ecoli rRNA inh	Ecoli rRNA inh OD600	Ecoli rRNA inh RFP	HNF4A DNA FP	AF4-AF9 inh	FGF22 binding	Vif TR-FRET	E coli growth
42	CCc1nc2ccc(C(=O)NCCCn3ccnc3)cn2c1N(CC)Cc1cccc(Br)c1	/	-37	-63	-12	-0.4	-25	i	/	/
44	Cc1cc(C)c(OCCN(C)Cc2ccccc2)c(Br)c1	-1	-23*	-7.4*	2.0*	-0.1	1.6	i	/	0.62

# Screening results as filed in PubChem BioAssay.
